# Screens as filed in PubChem.
# Anthrax LT inh – qHTS Assay for Anthrax Lethal Toxin Internalization; Cells, anthrax lethal toxin internalization, FRET ratio (460/530); Potency, µM (top dose mostly 40 µM), without a hit: top-dose activity change, negative = inhibition, actives largely listed as inhibitors; actives 0.67% (n = 70,000); active = well fitted falling ratio curve with the 530 nm signal flat; inconclusive = other ratio curves, or a change in one channel alone; inactive = flat curves in the ratio and both channels; the % refers to the ratio; also: % is scaled to controls: 0 for no effect and ±100 for the full control effect; nearly all actives have a fitted effect of over 50% in size; tested in ME-180 cells; beta-lactamase reporter
# SmPrx2 inh – Schistosoma Mansoni Peroxiredoxins (Prx2); actives 0.07% (n = 65,000); AID 448, 2006; Potency, µM; Schistosoma mansoni peroxiredoxin 2 (Prx2); S. mansoni Prx2 activity coupled to TGR/GSH (TGR is thioredoxin glutathione reductase), NADPH fluorescence loss, qHTS; some inactives read as strong as hits; active means full or partial inhibition curve with a strong effect at the top dose; inconclusive means weaker partial or single-point curve; inactive means no accepted curve; also: series up to 57 µM; many of its hits are not listed in these tables
#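 Activity is read as the drop in NADPH fluorescence (365/450 nm), recorded every 30 sec for 8 min after H2O2 addition. Prx2 is coupled to TGR-driven NADPH oxidation through glutathione, in phosphate buffer pH 7.4.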
# Starred values were filed as active, the others as inactive; ? = inconclusive; / = no result given; [ ] = dose if it differs, or a comment. Potency is read from the fitted curve at half-maximal effect. The list is partial; the hit share may differ from the screen's.
SMILES	Anthrax LT inh	SmPrx2 inh
COc1ccc2cc(C(=O)Nc3c(C)n(C)n(-c4ccccc4)c3=O)sc(=O)c2c1OC	-6%	>57
O=C(Cc1ccccc1)NC1CCN(S(=O)(=O)c2cccc(F)c2)CC1	8%	>57
Cc1csc(SCC(=O)Nc2nc(-c3ccccc3)cs2)n1	6%	>57
O=C(Cn1ccc2ccccc2c1=O)NCCC(=O)Nc1ccc2c(c1)OCCO2	3%	>57
COc1cccc2[nH]c3c(N4CCCCC4)ncnc3c12	22%	>57
CC(=O)Nc1cccc(NC(=O)CSc2nnnn2C)c1	-10%	>57
Cc1nonc1OCCNC(=O)C12CC3CC(CC(C3)C1)C2	11%	>57
O=C(Nc1ccccc1)Nc1cccc2cccnc12	-2%	>57
CCCc1cc(=O)[nH]c(SCC(=O)N(C)CC(=O)Nc2ccc(C)cc2)n1	-2%	>57
COc1cccc(C2C(C#N)=C(N)Oc3cc(C)n(Cc4ccco4)c(=O)c32)c1 (centres undefined)	/	>57
Cn1c(SCC(=O)Nc2ccc3cn[nH]c3c2)nnc1-c1cccs1	-6%	>57
Cc1cc(C)nc(NC2=NCC(=O)N2c2ccccc2Br)n1	-16%	>57
COc1ccc(N2CCN(CCNC(=O)c3cccn4c(=O)c5ccc(Cl)cc5nc34)CC2)cc1	-4%	>57
COCCNC(=O)c1ccc2c(c1)NC(=O)CS2	/	>57
Cc1oc(-c2ccccc2F)nc1CS(=O)(=O)CC(=O)NC1CCCC1	-5%	>57
CCOC(=O)c1ccc(-c2ccc(C(=O)Nc3cccnc3)o2)cc1	?	/
Brc1ccc(-c2noc(CCc3ccccc3)n2)o1	?	>57
COCCOC(=O)c1c(C)n(C)c2ccc(OC(=O)C3CC3)cc12	-2%	>57
COc1ccc(NC(=O)CN(C2CCCCC2)S(C)(=O)=O)cc1OC	8%	>57
CCCn1c(N)c(Sc2ccc(Cl)cc2)c(=O)n(CCC)c1=O	-15%	>57
CCOc1ccc(NC(=O)CN2CCN(CC(=O)c3ccc(OCC)cc3)CC2)cc1	?	>57
CCn1c(CSc2nc(C)cc(C)n2)nnc1SCC(=O)Nc1nc(-c2ccccc2)cs1	-13%	>57
CC(C)[C@]1(O)[C@@H](OC(=O)c2ccc[nH]2)[C@]2(O)[C@@]3(C)C[C@@]4(O)O[C@@]5([C@H](O)[C@@H](C)CC[C@]35O)[C@]2(O)[C@]41C	3%[8 µM]	>57
CCCc1c(OCCCOc2ccc(OCC(=O)O)cc2)ccc(C(C)=O)c1O	5%	>57
Cn1c(=O)c(-c2ccc(F)c(F)c2)nc2cncnc21	?	>57
CCCCn1c(SCC(=O)NCc2ccco2)nc2ccc(N3CCOCC3)cc2c1=O	11%	>57
Cn1c(=O)c2[nH]c([C@@H]3CC(=O)C[C@H](c4nc5c([nH]4)c(=O)n(C)c(=O)n5C)N3)nc2n(C)c1=O	10%[8 µM]	>57
CN(C)c1ncc2nc(-c3cc(F)cc(F)c3)c(=O)n(C[C@H]3CCCO3)c2n1	?	>57
COc1ccc(OC)c2[nH]c(=O)c(CCNC(C)=O)cc12	7%	>57
CCc1nnc(NC(=O)c2c(O)c3cccc4c3n(c2=O)CC4)s1	0%	>57
Cc1cc(=O)[nH]c(-n2nc(C)c(Oc3ccccc3O)c2C)n1	-3%	/
O=C(O)c1cccc2c1C(=O)N(Cc1ccncc1)C2	-13%	>57
COc1ccccc1-c1cc(C(=O)N2CCc3ccccc3C2)no1	?	>57
COc1ccccc1N1CCN(C(=O)CSc2nc3ncnc(N)c3[nH]2)CC1	?	>57
O=C(Nc1ccc(Cl)cc1C(=O)N1CCOCC1)c1ccco1	-2%	>57
CC(C)CN1CCCC2(CCN(C(=O)c3cccn3C)CC2)C1	?	>57
Cn1c(=O)cc(SCC(=O)NCc2ccco2)c2ccccc21	0%	>57
C[C@@H](C(=O)O)[C@@H]1C[C@@]1(C)[C@@H](NC(=O)OCc1ccccc1)c1ccccc1	-1%	>57
CC1CCN(C(=O)c2ccc(C(=O)N3CCC(C)CC3)cc2)CC1	0%	>57
CC(Cc1ccccc1)C(=O)N[C@@H](CO)Cc1ccccc1 (some centres undefined)	5%	/
N#Cc1ccccc1CSc1nc(N2CCCCC2)nc(N2CCCCC2)n1	-3%	>57
O=C1c2cccc3c(Cl)ccc(c23)C(=O)N1O	23%	>57
COc1ccccc1CNS(=O)(=O)c1c(C)noc1C	-5%	>57
COc1ccc(-c2nnc(SCC(=O)c3ccco3)n2-c2ccccc2)cc1	3%	>57
CCC(=O)N1CCc2cc(Br)cc(S(=O)(=O)NCc3ccco3)c21	-6%	>57
NC[C@@H]1O[C@H](O[C@H]2[C@H](O)[C@@H](O[C@H]3[C@H](O)[C@H](N)C[C@H](N)[C@H]3O[C@@H]3O[C@H](CO)[C@@H](O)[C@H](O)[C@@H]3N)O[C@H]2CO)[C@@H](N)[C@H](O)[C@@H]1O	6%[3.58 µM]	>57
O=C1CC(N(O)c2ccccc2)C(=O)N1c1cc(Cl)cc(Cl)c1 (centres undefined)	?	>57
O=C(NCC(c1cccnc1)N1CCN(c2ccccc2F)CC1)Oc1ccccc1 (centres undefined)	-2%	>57
COc1ccccc1NC(=O)c1cc2n(n1)C(C(F)(F)F)CC(c1ccc3c(c1)OCO3)N2 (centres undefined)	?	>57
O=CC(=O)c1ccccc1	?	/
Cc1cc(C)c2c(n1)nn1c(NCCCn3ccnc3)cc(C)nc21	/	>57
COc1ccccc1N1CCN(C(=O)CCNS(=O)(=O)c2ccc3c(c2)CCC(=O)N3)CC1	3%	>57
CCOC(=O)CCCNC(=O)COC(=O)CCC(=O)c1ccc(F)cc1	11%	>57
CCc1ccc2[nH]cc(C(=O)N3CCCCCC3)c(=O)c2c1	10%	>57
Cc1cccc(CN2CCN(CC(=O)NCCCN3CCCC3=O)C2=O)c1	1%	>57
CCOC(=O)C(NC(C)=O)(NS(=O)(=O)c1ccccc1)C(F)(F)F (centres undefined)	8%	>57
COc1ccc(C)cc1S(=O)(=O)N(CC(N)=O)Cc1ccccc1	0%	>57
CSc1nnc(CNC(=O)c2ccccc2)n1-c1cccc(C)c1	5%	>57
COc1ccc(OC)c(NC(=O)C2CCN(c3cc(-c4ccccc4)nc4ncnn34)CC2)c1	-4%	>57
Cc1ccc(C(=O)N(CN2CCCC2=O)c2ccc(F)cc2)cc1	14%	>57

# Rewritten with two lines to a compound: six of the compounds above.
# Order of values – Anthrax LT inh | SmPrx2 inh
- CC(C)CN1CCCC2(CCN(C(=O)c3cccn3C)CC2)C1
 : ? | >57
- CCc1ccc2[nH]cc(C(=O)N3CCCCCC3)c(=O)c2c1
 : 10% | >57
- CCOC(=O)CCCNC(=O)COC(=O)CCC(=O)c1ccc(F)cc1
 : 11% | >57
- Cc1ccc(C(=O)N(CN2CCCC2=O)c2ccc(F)cc2)cc1
 : 14% | >57
- O=C1CC(N(O)c2ccccc2)C(=O)N1c1cc(Cl)cc(Cl)c1 (centres undefined)
 : ? | >57
- C[C@@H](C(=O)O)[C@@H]1C[C@@]1(C)[C@@H](NC(=O)OCc1ccccc1)c1ccccc1
 : -1% | >57

# (next part)
SMILES	Anthrax LT inh	SmPrx2 inh
CCOC(=O)c1nc2sc3c(c2c(=O)[nH]1)CCCC3	?	>57
C=CCOc1ccccc1/C=N/O	-5%	>57
Cc1ccc(-n2ncc3c(NCc4ccccn4)ncnc32)c(C)c1	-11%	>57
CCN(CC)S(=O)(=O)c1ccc(-c2nnc(SCC(=O)N3CCc4ccccc43)o2)cc1	5%	>57
Cn1nc(-c2ccc(Cl)cc2)c2cc(C(=O)N3CCC(N4CCCCC4)CC3)sc21	-7%	>57
COC(=O)c1ccc(CNC(=O)CSc2nnc(COc3ccccc3)n2C)o1	-9%	>57
Cn1c(Cn2c(=O)sc3ccccc32)nnc1SCC(=O)Nc1ccccc1F	6%	>57
Cc1cc(Oc2ccccc2)nc(N)n1	-4%	>57
COc1ccc(C(=O)/C=C/Nc2cc(C)on2)cc1	-5%	/
CN1CCN(C(c2cccc(C(F)(F)F)c2)c2nnnn2C(C)(C)C)CC1 (centres undefined)	-7%	>57
O=C(c1ccccc1)c1ccc(N2CCCC2)cc1	-27%	/
O=C(Nc1ccccc1)N(CCCN1CCOCC1)Cc1cccs1	-10%	>57
COc1cc2[nH]c(=O)n(Cc3ccc(C(=O)NCC4CCCO4)cc3)c(=O)c2cc1OC (centres undefined)	13%	>57
CCCOc1ccc(Cn2c(=O)oc3ccc(C)cc32)cc1OC	-8%	>57
Cn1c(=O)c2c(nc(CN3CCc4ccccc4C3)n2Cc2ccccc2F)n(C)c1=O	?	>57
Cc1ccccc1-n1nnnc1SCc1ncc(-c2ccccc2)o1	?	>57
N#Cc1cccc(-c2nc3cnc(Nc4ccccc4)nc3n(C[C@H]3CCCO3)c2=O)c1	?	>57
CC(C)c1nnc(NC(=O)CCC(=O)NCc2ccco2)s1	?	>57
COc1cccc2cc(C(=O)N3CCc4ccccc4C3)c(=O)oc12	-5%	>57
COc1cc(S(=O)(=O)NCCc2ccc3c(c2)OCO3)ccc1-n1cnnn1	-10%	>57
COc1ccc(OC)c(S(=O)(=O)n2ccnc2)c1	10%	>57
COc1ccc2[nH]c3ccc(OC)cc3c2c1	-10%	>57
O=c1[nH]c2ccsc2c(=O)n1-c1ccc(F)cc1	-7%	>57
O=C(c1cc2ccccc2oc1=O)N1CCN(C(=O)C2CCCO2)CC1 (centres undefined)	/	>57
O=C(Nc1ccc(N2CCOCC2)c(F)c1)c1ccncc1	3%	>57
O=C(Cn1cccc1C(=O)c1ccccc1)NCc1ccc2c(c1)OCO2	1%	>57
CC(=O)CC(=O)NC1C2CC3CC(C2)CC1C3 (centres undefined)	-7%	/
CCC(=O)Oc1c(S(=O)(=O)c2ccc(C)cc2)c(C)nn1C(C)(C)C	3%	>57
O=C(NC1CCCCCCC1)C1CCN(S(=O)(=O)N2CCC3(CC2)OCCO3)CC1	2%	>57
O=C(O)C[C@H](S)C(=O)O	5%[8 µM]	>57
CCOC(=O)c1[nH]c(C)c(C(=O)NC2CCN(C(=O)OCC)CC2)c1C	5%	>57
CN(C)C(=O)c1ccc(-c2nc(N3CCOCC3)c3ccccc3n2)cc1	-8%	>57
O=C(CN1CCC(NC(=O)Nc2ccccc2-c2ccccc2)CC1)NCc1ccco1	-12%	>57
O=C(Nc1ccccc1N1CCN(C(=O)c2ccccc2)CC1)c1ccc2c(c1)OCO2	4%	>57
Cc1ccc(S(=O)(=O)C2(C(=O)N(C)C3CCCCC3)CC2)cc1	0%	>57
CCc1ccc2[nH]c(=O)c(CN(CCN3CCCC3)C(=O)NC3CCCCC3)cc2c1	?	>57
O=C(c1cccs1)N(Cc1ccco1)C1CCS(=O)(=O)C1 (centres undefined)	-19%	>57
O=C(O)C(Oc1nc(=S)[nH]c(=S)[nH]1)(c1ccc(Cl)cc1)c1ccc(Cl)cc1	-4%[8 µM]	>57
CCOc1ccc(NC(=O)c2ccc(S(=O)(=O)N(C)C)cc2)cc1	-27%	>57
COc1ccc(C2C=C(c3ccccc3)Nc3ncnn32)cc1 (centres undefined)	?	>57
Cc1cccc(C)c1N(CC(=O)N1CCN(C)CC1)S(C)(=O)=O	6%	>57
Oc1ccc(Oc2ncc(Cl)cc2Cl)cc1	-4%	>57
Cn1c(SCC(=O)NC(C)(C)C)nc(O)cc1=O	7%	>57
CCCSc1n[nH]c(NC(C)=O)n1	0%	>57
Cn1c(SCC(=O)c2ccc(-c3ccccc3)cc2)nnc1-c1ccco1	5%	>57
CCNC(=O)c1ccc(NS(=O)(=O)c2ccccc2)cc1	-6%	>57
Cn1c(=O)c2c(nc(NCc3ccco3)n2C)n(C)c1=O	21%	>57
COc1ccc(N(CC(=O)NCC2CCCO2)S(=O)(=O)c2c(C)noc2C)cc1 (centres undefined)	5%	>57
COc1cc(OC)cc([C@H](CNc2ncnc3c2ncn3[C@@H]2O[C@@H](CO)[C@H](O)[C@@H]2O)c2ccccc2C)c1	-5%	>57
O=C(NCCNCCO)c1c(O)c2cccc3c2n(c1=O)CCC3	-15%	>57
COC1CCCCC1Nc1cc(C)ccc1C (centres undefined)	-4%	/
COc1ccc2nc(SCc3nc(N)nc(Nc4ccccc4)n3)[nH]c2c1	?	>57
CC(=O)OC[C@@H]1O[C@H](CCON=C(C)C)C=C[C@@H]1OC(C)=O	-7%[8 µM]	/
O=C(COC(=O)c1ccc[nH]c1=O)c1ccc(Cl)s1	5%	>57
CCOC(=O)N1CCN(C(=O)Cc2ccc(-n3c(=O)[nH]c4ccccc4c3=O)cc2)CC1	6%	>57
c1coc(-c2nn3c(Cn4nnc5ccccc54)nnc3s2)c1	-6%	>57
COc1ccc(CC(=O)Nc2ccc(-c3noc(-c4cccc(OC)c4)n3)cc2)cc1	-11%	>57
CCC(C)C(=O)Nc1c2c(nc3c1CCC3)CCCC2 (centres undefined)	6%	>57
